Bioassay records as filed in PubChem.
D2 agonist: agonists of human D2 dopamine receptor (beta-arrestin); DiscoveRx PathHunter D2 beta-arrestin, luminescence, 90 min; 100% = 57 uM dopamine signal; activation, % (no concentration beside the values); 360,000 tested, 0.084% active; P14416; in the data active = activation above about 40%; inconclusive = about 15% to 40%; inactive = below about 15%; also: compound concentration not given in the record; the text of the record calls up to 30% inactive
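DiscoveRx PathHunter D2 beta-arrestin cells (2,100/well) attached overnight, then compound-stimulated 90 min at 37 C in HBSS/10 mM HEPES/0.1% Tween-20 buffer; beta-galactosidase complementation read by luminescence after 1 h at ambient temperature. Dopamine 57 uM final (EC100) as control.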
Six1-Eya2 blk: Six1/Eya2 interaction inhibition | 360,000 tested, 0.56% active | activity change, % (no concentration beside the values) | AlphaScreen GST-Six1/His-Eya2 binding, biochemical; active compounds read low; control for the full effect not named in the record | Q15475+O00167; in the data active = activity change below about -65%; inconclusive = about -30% to -65%; inactive = above about -30%; also: % is scaled to controls: 0 for no effect and ±100 for the full control effect
Target sequence (O00167 whole entry, looked up): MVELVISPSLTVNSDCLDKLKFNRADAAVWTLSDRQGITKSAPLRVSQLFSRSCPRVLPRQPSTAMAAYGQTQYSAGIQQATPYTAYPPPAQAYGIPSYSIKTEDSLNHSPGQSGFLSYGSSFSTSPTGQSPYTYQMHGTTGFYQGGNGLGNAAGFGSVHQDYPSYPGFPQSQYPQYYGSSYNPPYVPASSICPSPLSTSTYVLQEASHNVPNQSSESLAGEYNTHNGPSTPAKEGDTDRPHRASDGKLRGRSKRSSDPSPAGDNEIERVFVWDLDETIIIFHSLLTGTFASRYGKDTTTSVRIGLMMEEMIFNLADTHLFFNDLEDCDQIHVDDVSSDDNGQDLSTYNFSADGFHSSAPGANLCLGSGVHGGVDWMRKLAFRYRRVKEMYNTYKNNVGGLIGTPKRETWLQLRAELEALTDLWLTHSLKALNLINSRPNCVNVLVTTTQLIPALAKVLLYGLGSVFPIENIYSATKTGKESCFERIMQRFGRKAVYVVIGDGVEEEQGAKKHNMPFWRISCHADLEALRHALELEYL
Target sequence (Q15475 whole entry, looked up): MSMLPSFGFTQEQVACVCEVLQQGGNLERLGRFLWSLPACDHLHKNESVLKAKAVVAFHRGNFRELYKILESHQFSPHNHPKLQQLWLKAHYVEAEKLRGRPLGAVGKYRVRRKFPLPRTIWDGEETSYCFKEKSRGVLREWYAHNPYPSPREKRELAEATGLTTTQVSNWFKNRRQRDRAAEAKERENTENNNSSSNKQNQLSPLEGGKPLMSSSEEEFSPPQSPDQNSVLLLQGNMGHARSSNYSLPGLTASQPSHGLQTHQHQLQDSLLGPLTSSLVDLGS
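Compounds are tested against tagged Six1 and Eya2 proteins bridged by glutathione donor and nickel acceptor beads; after a one-hour incubation at 37 °C without light, AlphaScreen emission is recorded.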
D2 potentiator: potentiates the human D2 dopamine receptor allosterically | DiscoveRx D2 beta-arrestin cells, luminescence, 90 min; 100% = 57 uM dopamine signal | 360,000 tested, 0.23% active | potentiation, % (no concentration beside the values) | P14416 | AID 624464; active = potentiation of 50% or more; inconclusive = 30% to 50%; inactive = 30% or less;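 also: compound concentration not given in the record; tested on top of an EC20 dose of dopamine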
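D2 cells co-treated with compound plus 50 nM dopamine (EC20) for 90 min at 37 deg C to detect potentiation. Beta-arrestin recruitment was read as enzyme-fragment luminescence after 1 h at ambient temperature. Full response was set by 57 uM dopamine.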
PINK1 modulator: modulators of PINK1 expression. PINK1 immunofluorescence, high-content cytometry, 24 h. Potency, µM (doses to about 76.6 µM), for the others: at the highest dose activation (PINK1 increase), actives largely listed as activators. 410,000 tested, 0.2% active; active = well fitted activation curve with a large enough effect; inconclusive = small, poorly fitted or top-dose-only effect; inactive = flat fitted curve, though single readings scatter; cell line not stated here;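 also: potency is read from the fitted curve at half-maximal effect; % of control where 0% means no effect; nearly all actives have a fitted effect of over 65% in size; a mitochondrial uncoupler was the plate control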
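Stable cell line treated 24 h with compounds at 5 concentrations (CCCP controls), then fixed and immunostained for PINK1 plus nuclear and cell stains; PINK1 immunofluorescence quantified by laser-scanning microplate cytometry.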
CtBP-E1A blk: CtBP/E1A binding inhibition. AlphaScreen GST-E1A/His-CtBP binding, 1536-well; active compounds read low; control for the full effect not named in the record. activity change, % (test concentration not listed). 340,000 tested, 0.49% active. AID 651724; in the data active means activity change below about -65%; inconclusive means about -30% to -65%; inactive means above about -30%; also: % is scaled to controls: 0 for no effect and ±100 for the full control effect
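In 5 uL wells, 23 nL compound meets equimolar GST-E1A and His-CtBP (5X stock 125 nM each) for 2 h, 37 °C. Beads (5X, 50 ug/mL) then 1 h, 37 °C, dark.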
TRPML1 ag: activates the human TRPML1 channel | 410,000 tested, 0.12% active | activation, % (no concentration beside the values) | TRPML1-expressing cells, Ca2+ dye fluorescence, FDSS; host cell line not named in the record; reference of the full effect not given here | Q9GZU1 | AID 624414; in the data active = activation above about 50%; inconclusive = about 30% to 50%; inactive = below about 30%; also: 0% is about no effect; the text of the record puts the active cut at 80%
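Tet-induced TRPML1-DL cells, 1,500 per well, cultured overnight, were loaded with a no-wash Ca2+ dye for 45–90 min. Calcium fluorescence was recorded on the FDSS for 110 s after compound addition, before the EC80 agonist (4 uM 54-4) was added.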
Numbers without * were called inactive; ? = inconclusive; / = no result given; & = joins results of further samples; [ ] = dose if it differs, or a comment.

SMILES	D2 agonist	Six1-Eya2 blk	D2 potentiator	PINK1 modulator	CtBP-E1A blk	TRPML1 ag
COC(=O)c1sccc1NC(=O)/C=C/c1ccc(Cl)cc1	-1.1	8	-15	?	26	1.8
CCCCn1c(N)c(N(CC)C(=O)c2cc3c(s2)CCCCC3)c(=O)[nH]c1=O	-6.9	-1	-30	0.2%	1	-0.8
COCCNC(=O)COc1ccc(C)c(C)c1	-1.4	-4	-12	/	7	-0.2
Nc1c(C(=O)NC2CCCC2)c2nc3ccccc3nc2n1N	0.8	-13	24	-0.5%	-1	-0.4
CC1CCC(NC(=O)c2ccc(CS(=O)(=O)Cc3ccccc3F)o2)CC1 (stereo not given)	-6.1	-1	3	4.7%	5	0.2
CC(C)N(C(=O)[C@H]1C[C@H](CC(=O)NCCCn2ccnc2)C(=O)N2CCc3c([nH]c4cc(-c5ccco5)ccc34)[C@]12C)C(C)C	-2.6	-2	-6	1.3%	3	-0.3
Cc1ccc([N+](=O)[O-])cc1S(=O)(=O)n1ccnc1C	2.6	5	-2	0.4%	/	0.4
CNC(=O)c1[nH]cnc1C(=O)Nc1ccccc1OC	-4.1	-29	7	0.5%	-12	0.1
CC(=O)NNC(=O)N1Cc2ccccc2Oc2ccc(Cl)cc21	-4.7	-1	-1	0.7%&-0.3%	6	-0.5&0.3
COCCNC(=O)C(NC(=O)C1CCC(C)CC1)C(C)C (stereo not given)	-0.7	7	6	-0.5%	/	2.8
Cc1nc(NC(=O)c2cnccn2)ccc1Br	6.9	1	-9	0.5%	-1	0.8
CN(C(=O)COC(=O)c1c[nH]c2ccccc12)c1ccccc1	-1.1	-8	-12	1.1%	-6	-0.2
N#Cc1ccc(C(=O)OCc2cccc(S(=O)(=O)N3CCOCC3)c2)cc1	-0.9	6	-22	3.9%	4	0.0
Cc1c([N+](=O)[O-])ccc(S(=O)(=O)N2CCC(C(N)=O)CC2)c1C	-1.6	7	-7	-1.2%	10	0.8
Cc1ccc(SCc2cc(=O)[nH]c(N3CCN(C)CC3)n2)cc1	-3.4	-3	-16	0.8%	2	-0.3
Clc1ccc(N/N=C/c2ccncc2)cc1Cl	8.7	2	?	-1.4%	12	-0.2
COc1cccc(NC(=O)N(C)C[C@@H]2Oc3cc(Br)ccc3S(=O)(=O)N([C@@H](C)CO)C[C@H]2C)c1	-8.8	6	-3	0.0%	-4	0.1
CC(C)(C)c1ccc(OCC(=O)Nc2cccc(S(=O)(=O)NC3=NCCCCC3)c2)cc1	-0.2	-3	10	-0.4%	/	1.0
CC(NC(=O)COc1ccc(S(=O)(=O)N2CCCC2)cc1)c1ccccc1 (stereo not given)	0.5	0	-6	0.9%	5	-0.6
CN(C)c1ccc(C2Nc3cccc4cccc(c34)N2)cc1	8.1	0	-5	-0.1%	-7	0.3
CC(=O)Nc1ccc(CCCCc2ccc(NC(C)=O)cc2)cc1	6.9	-1	3	-1.5%	4	0.0
O=C(/C=C/NCc1ccc(F)cc1)c1ccccc1	1.2	-2	-4	-1.6%	7	1.1
Cc1ccccc1N1C(S)=C(C#N)C(=O)NC1c1ccco1 (stereo not given)	2.6	-9	5	-0.3%	-12	3.7
O=C(NNC(=O)c1ccc(S(=O)(=O)N2CCOCC2)cc1)c1ccccc1	-0.7	3	-3	1.0%	-10	-0.3
CC(=O)N1c2ccccc2Nc2ccccc21	1.0	-1	-5	1.8%	2	1.1

(more compounds)
SMILES	D2 agonist	Six1-Eya2 blk	D2 potentiator	PINK1 modulator	CtBP-E1A blk	TRPML1 ag
Cn1c(=NC(=O)c2ccccc2[N+](=O)[O-])sc2cccc(F)c21	7.7	2	9	1.9%	/	0.5
COc1ccc(CN2C[C@@H](CO)O[C@@H](n3cnc4c(NCc5ccncc5)ncnc43)C2)cc1	2.5	2	-1	0.8%	4	-0.6
CC1=C(C(=O)N2CCCCCC2)CC(CC(=O)NC(c2ccccc2)c2ccccc2)C(=O)N1CCC1=CCCCC1 (stereo not given)	/	-16	/	9.6%	-3	-0.5
O=C(Cn1cc2c(n1)CCCC2)Nc1cc(-c2cccc(Cl)c2)no1	1.7	-1	-3	7.9%	-2	1.8
O=C(NNc1c([N+](=O)[O-])cc(C(F)(F)F)cc1[N+](=O)[O-])c1ccco1	-8.0	?	-17	?	?	-0.3
O=C(N/N=C/c1cc([N+](=O)[O-])c(N2CCOCC2)cc1N1CCOCC1)c1cccnc1	-0.8	2	-6	-1.3%	-1	0.5
CC(C)CC1NC(=O)N(CC(=O)NC2CCCCC2)C1=O (stereo not given)	-3.0	-5	-4	1.7%	8	-0.6
COCCNc1nc(Oc2ccc(CC(=O)OC)cc2)c2sc(-c3ccccc3)cc2n1	-1.6	4	-2	0.6%	8	2.0
COc1ccccc1NC(=O)c1ccc2nc(C)c(C)nc2c1	2.9	0	-31	-0.9%	-17	0.1
O=C(c1ccc(Cl)c(S(=O)(=O)N2CCCC2)c1)N1CCN(c2ccccc2F)CC1	4.5	-9	11	4.4%	-5	0.1
O=C(O)Cc1cn(-c2ccccc2)nc1-c1ccccc1	-3.8	3	-2	0.8%	7	0.3
CCOC(=O)C1(CC)CC(CSc2nc3ccccc3[nH]2)OC1=O (stereo not given)	2.1	9	7	-1.7%	0	2.2
O=C(c1cccc(S(=O)(=O)N2CCc3ccccc32)c1)N1CCOCC1	-0.2	8	2	-0.5%	-3	-0.1
Cc1ccc(Cc2c(-c3ccc(C)cc3)nc3ccc(Cl)cn23)cc1	-7.8	0	-2	19%	-2	-0.4
CCc1noc(C)c1C(=O)NNC(=O)c1cc(OC)c(OC)c(OC)c1	1.5	-2	-6	0.7%	10	-0.2
COc1cc([N+](=O)[O-])ccc1-c1ccc(C(=O)Nc2ccc(NC(C)=O)cc2)o1	7.5	-4	-5	3.2%	18	0.1
COC(=O)N1CCc2c(sc(NC(=O)C3COc4ccccc4O3)c2C(N)=O)C1 (stereo not given)	0.3	-9	8	4.7%	-3	1.7
Cc1ccc(S(=O)(=O)c2ccsc2NC(=O)c2ccccc2)cc1	-0.7	1	-4	21%	4	2.7
OC1CC(c2ccco2)NC2(CCCCC2)C1 (stereo not given)	-1.2	8	-5	1.1%	0	-0.5
OCC1(Cc2ccccc2)CCN(C2CCN(c3ccc(F)c(F)c3)CC2)CC1	-2.8	-2	-10	2.8%	3	-0.4
Cc1cc(C)c(NC(=O)CNC(=O)CNC(=O)C2CCCCC2)c(C)c1	-5.2	-4	-8	-0.3%	/	-0.4
CC(C)NC(=O)C1CCCN(S(C)(=O)=O)C1 (stereo not given)	0.5	5	-10	1.4%[38.3 µM]	15	-0.5
CCN(CC)C(=O)C1=C(C)N(Cc2ccccc2)C(=O)C(CC(=O)NC2CC2)C1 (stereo not given)	-7.2	5	6	4.5%	3	0.1
COc1cc(C(=O)NCCc2ccc(S(N)(=O)=O)cc2)ccc1OCc1c(C)noc1C	4.1	0	15	6.3%	/	-0.9
COC(=O)[C@]12CCCCC=C1N(CCC1=CCCCC1)C(=O)[C@H](CC(=O)N1CCN(C(=O)C3CC3)CC1)C2	/	-4	/	0.8%	0	-0.5

(continued)
SMILES	D2 agonist	Six1-Eya2 blk	D2 potentiator	PINK1 modulator	CtBP-E1A blk	TRPML1 ag
O=C(CCCCn1cnc2c(=S)nc[nH]c21)Nc1ccc(C(=O)O)cc1	0.6	16	-5	2.0%	-15	1.4
CSC1=NC2(CC(c3ccccc3)Oc3cc(O)ccc32)CC(C)(C)N1 (stereo not given)	-3.8	-11	-31	2.7%	-2	0.3
O=S1(=O)C=C(Oc2ccc3ccccc3c2)c2ccccc21	1.7	4	?	-2.7%	1	2.0
CCOC(=O)c1cnc2ccc(OCC)cc2c1NCCN1CCOCC1	-2.9	3	-8	-1.4%	-5	0.8
COCCNC(=O)/C(C#N)=C/c1ccc(OCc2ccc(F)cc2)cc1	2.5	-2	-17	2.6%	-13	0.6
CC(=O)c1cn(CC(=O)Nc2ccccc2C(F)(F)F)c2ccccc12	14	-13	-5	4.8%	/	-1.1
CCOC(=O)C1CCN(C(=O)CSc2nnc(-c3ccco3)n2-c2ccccc2)CC1	-0.4	3	-2	-0.4%	-2	1.0
O=S(=O)(Nc1cccc(S(=O)(=O)N2CCOCC2)c1)c1ccc(Cl)s1	-1.6	4	1	2.1%	-18	-0.9
Cc1cc(C)c(S(=O)(=O)NCc2csc(C)n2)c(C)c1	2.7	8	-2	-3.4%	5	0.5
CCOC(=O)C1=C(CSc2nc3c(cc2C#N)CN(C)CC3)OC(N)=C(C#N)C1c1ccc(F)cc1 (stereo not given)	4.1	-26	-14	-2.2%	-1	1.2
CCOC(=O)c1c(-c2ccccc2)nc2ccc(C)cn12	-1.9	-6	2	-1.3%	-1	-1.1
CC(Sc1nnc2n1CCCCC2)C(=O)Nc1ccc(S(N)(=O)=O)cc1 (stereo not given)	-3.1	0	21	-1.0%	5	0.4
COc1ccc2c(C)nc(Nc3nc(C)c(C)c(=O)[nH]3)nc2c1	2.1	-15	12	-4.3%	-10	0.9
COc1ccc(/C=N/NC(C)(C)C)c(OC)c1	-6.6	-4	6	-0.2%	0	-0.3
COc1ccc(Br)cc1CNC(=O)CCNC(=O)Cn1ccc2ccccc2c1=O	1.1	-3	5	3.2%	0	-1.0
COc1cc(CNC(=O)c2ccc(Cn3nc(C)c(Cl)c3C)o2)cc(OC)c1	0.7	-7	-9	-3.8%[38.3 µM]	5	-0.1
Cc1oc(CC(C)C)cc1C(N)=O	0.1	5	1	2.6%	0	0.4

Full records, looked up by structure. Screens in order: D2 agonist, Six1-Eya2 blk, D2 potentiator, PINK1 modulator, CtBP-E1A blk, TRPML1 ag
O=S(=O)(Nc1cccc(S(=O)(=O)N2CCOCC2)c1)c1ccc(Cl)s1 in the list: -1.6, 4, 1, 2.1%, -18, -0.9
COc1ccc(/C=N/NC(C)(C)C)c(OC)c1 in the list: -6.6, -4, 6, -0.2%, 0, -0.3
CCOC(=O)C1=C(CSc2nc3c(cc2C#N)CN(C)CC3)OC(N)=C(C#N)C1c1ccc(F)cc1 (stereo not given) in the list: 4.1, -26, -14, -2.2%, -1, 1.2
COCCNC(=O)/C(C#N)=C/c1ccc(OCc2ccc(F)cc2)cc1 in the list: 2.5, -2, -17, 2.6%, -13, 0.6
COc1ccc(Br)cc1CNC(=O)CCNC(=O)Cn1ccc2ccccc2c1=O in the list: 1.1, -3, 5, 3.2%, 0, -1.0

Reformatted: two of the compounds above.
Structure | D2 agonist | Six1-Eya2 blk | D2 potentiator | PINK1 modulator | CtBP-E1A blk | TRPML1 ag
O=S(=O)(Nc1cccc(S(=O)(=O)N2CCOCC2)c1)c1ccc(Cl)s1 | -1.6 | 4 | 1 | 2.1% | -18 | -0.9
Cc1cc(C)c(S(=O)(=O)NCc2csc(C)n2)c(C)c1 | 2.7 | 8 | -2 | -3.4% | 5 | 0.5

Rows were taken by chance, and some 1.3% of all compounds hit somewhere here.
